Screening results as filed in PubChem.
HIV Env fusion: inhibitors of HIV-1 Env-driven cell-cell fusion, primary screen, HeLa-JRFL effector, CEM21 target cells, luciferase; inhibition, % at 12.3 µM; 360,000 compounds, 1.1% hits; AID 651610, 2012;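 active means mean replicate inhibition score of at least 50 and every replicate individually at or above 50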;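 further: 0% = plate neutral controls and 100% = maraviroc near 300 nM; one replicate is shown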
Active calls of the source: *; [ ] = dose if it differs, or a comment. The list is partial; the hit share may differ from the screen's.

SMILES	HIV Env fusion
Cc1cccc(NC(=O)CNC(=O)[C@@H](Cc2ccccc2)NC(=O)[C@H]2O[C@@H](n3ccc(N)nc3=O)[C@H](O)[C@@H]2O)c1C	-3
CN(C)CC(=O)N1[C@H](C(=O)Nc2nccs2)[C@@H](CO)[C@@H]2Cn3c(ccc(C4=CCCCC4)c3=O)[C@@H]21	-6[16.7 µM]
COCCNC(=O)C[C@@H]1C[C@@H]2c3cc(NC(=O)Nc4ccc(C(F)(F)F)cc4)ccc3O[C@@H]2[C@@H](CO)O1	-6[16.7 µM]
CCNC(=O)C[C@@H]1CC[C@H]2[C@@H](COc3ccc(NC(C)=O)cc3C(=O)N2C)O1	-16[16.7 µM]
CN1C(=O)c2cc(NC(=O)c3ccc(C(F)(F)F)cc3)ccc2OC[C@@H]2O[C@H](CC(=O)NC3Cc4ccccc4C3)CC[C@H]21	2[16.7 µM]
CNC[C@H]1Oc2c(NC(=O)c3nc4ccccc4s3)cccc2C(=O)N([C@H](C)CO)C[C@@H]1C	38[16.7 µM]
CC=Cc1ccc2n(c1=O)C[C@@H]1[C@@H](CO)[C@H](C(=O)NCCC)[C@H]2N1C(=O)Nc1cc(F)ccc1F (mixture of isomers)	19[16.7 µM]
O=C(C[C@H]1C=C[C@H](NS(=O)(=O)c2ccccc2)[C@@H](CO)O1)NCc1ccc(Cl)c(Cl)c1	10[16.7 µM]
COc1ccc2c3c(n(C)c2c1)[C@@H](CO)N(C(C)=O)CC31CN(C(=O)C2CCOCC2)C1	0[16.7 µM]
CNC[C@H]1Oc2ccc(NC(=O)NC3CCCCC3)cc2CC(=O)N([C@@H](C)CO)C[C@@H]1C	-4[16.7 µM]
O=C(C[C@@H]1C[C@@H]2c3cc(NC(=O)C4CCC4)ccc3O[C@@H]2[C@H](CO)O1)NCCc1ccccc1	24[16.7 µM]
O=C(C[C@@H]1CC[C@H]2[C@@H](COC[C@H](O)CN2Cc2cc(F)cc(F)c2)O1)Nc1nccs1	-3[16.7 µM]
CCC(=O)N[C@H]1CC[C@@H](CC(=O)NCc2ccccc2F)O[C@H]1CO	-12[16.7 µM]
CO[C@H]1CN(C)C(=O)c2cccc(C#N)c2OC[C@H]2O[C@H](CC[C@@H]2OC)CCN(C)C(=O)[C@H]1C	-6[16.7 µM]
CC(C)(C)OC(=O)N1O[C@H]2C=C[C@@H]1C2	2
CO[C@@H]1CN(C)C(=O)c2cc(NC(=O)Cc3ccccc3)ccc2OC[C@@H](C)NC[C@@H]1C	-2[16.7 µM]
C[C@@H]1CN([C@@H](C)CO)S(=O)(=O)c2ccc(C3=CCCC3)cc2O[C@@H]1CN(C)S(C)(=O)=O	15[16.7 µM]
COc1ccccc1S(=O)(=O)N[C@@H]1C=C[C@@H](CC(=O)N2CCCCC2)O[C@@H]1CO	-80[16.7 µM]
Cc1noc(C)c1S(=O)(=O)Nc1ccc2c(c1)CC(=O)N([C@H](C)CO)C[C@H](C)[C@H](CN(C)C(=O)Nc1ccccc1)O2	6[16.7 µM]
COc1cccc(C(=O)Nc2ccc3c(c2)C(=O)N(C)[C@@H]2CC[C@H](CC(=O)NCCCN4CCOCC4)O[C@H]2CO3)c1	-4[16.7 µM]
CCCN1C[C@@H](C)[C@H](OC)CN(C)C(=O)c2cc(NS(=O)(=O)c3ccccc3)ccc2OC[C@@H]1C	-72[16.7 µM]
CN(C)C(=O)C[C@H]1CC[C@@H]2[C@H](COc3ccc(NC(=O)NCc4ccccc4)cc3C(=O)N2C)O1	-4[16.7 µM]
CN(C)C(=O)C[C@@H]1CC[C@@H](NC(=O)C2CCOCC2)[C@H](CO)O1	13[16.7 µM]
C[C@@H]1CN([C@@H](C)CO)C(=O)c2c(c3ccccc3n2C)-c2ccccc2CO[C@@H]1CN(C)C(=O)[C@@H](Cc1ccccc1)N(C)C	-110[16.7 µM]
CO[C@H]1CN(C)C(=O)c2cc(NC(=O)Nc3c(C)noc3C)ccc2OC[C@@H](C)N(CCC(F)(F)F)C[C@H]1C	-8[16.7 µM]
CO[C@@H]1CN(C)C(=O)c2cc(NS(=O)(=O)c3cccc(F)c3)ccc2OC[C@@H](C)NC[C@H]1C	-14[16.7 µM]
COc1ccc(C(=O)Nc2ccc3c(c2)C(=O)N(C)C[C@H](OC)[C@@H](C)CN(C)[C@H](C)CO3)cc1	3[16.7 µM]
C[C@H]1CN([C@@H](C)CO)C(=O)c2cccc(NC(=O)c3cnccn3)c2O[C@H]1CN(C)S(=O)(=O)c1ccccc1	-6[16.7 µM]
CN1[C@@H]2c3ccc(-c4ccccc4)c(=O)n3C[C@@H]2[C@@H](CO)[C@@H]1C(=O)N1CCc2ccccc2C1	-46[16.7 µM]
O=C(NC1CCC1)[C@@H]1[C@@H](CO)[C@@H]2Cn3c(cccc3=O)[C@@H]2N1CCc1ccccc1	23[16.7 µM]
O=C(C[C@@H]1C[C@@H]2c3cc(NC(=O)C4CCOCC4)ccc3O[C@@H]2[C@@H](CO)O1)NCc1ccc(Oc2ccccc2)cc1	-8[16.7 µM]
C[C@@H](NC(=O)C[C@@H]1CC[C@@H](NC(=O)c2cccnc2)[C@H](CO)O1)c1ccccc1	0[16.7 µM]
CC(C)OC(=O)N(C)C[C@@H]1OCc2ccccc2-c2ccccc2C(=O)N([C@@H](C)CO)C[C@H]1C	22[16.7 µM]
CO[C@@H]1CN(C)C(=O)c2ccc(NS(=O)(=O)c3ccccc3C)cc2OC[C@@H](C)N(C)C[C@@H]1C	-1[16.7 µM]
C[C@H]1COc2cc(N3CCOCC3)ccc2S(=O)(=O)N1	-9
CN(C)c1ccc2c(c1)[C@@H]1C[C@H](CC(=O)NCCN3CCCCC3)O[C@@H](CO)[C@@H]1O2	3[16.7 µM]

For convenience, some entries already given.
SMILES	HIV Env fusion
O=C(NC1CCC1)[C@@H]1[C@@H](CO)[C@@H]2Cn3c(cccc3=O)[C@@H]2N1CCc1ccccc1	23[16.7 µM]
O=C(C[C@@H]1C[C@@H]2c3cc(NC(=O)C4CCOCC4)ccc3O[C@@H]2[C@@H](CO)O1)NCc1ccc(Oc2ccccc2)cc1	-8[16.7 µM]
C[C@@H](NC(=O)C[C@@H]1CC[C@@H](NC(=O)c2cccnc2)[C@H](CO)O1)c1ccccc1	0[16.7 µM]
CC(C)OC(=O)N(C)C[C@@H]1OCc2ccccc2-c2ccccc2C(=O)N([C@@H](C)CO)C[C@H]1C	22[16.7 µM]

(list continues)
SMILES	HIV Env fusion
COC(=O)c1cn(C[C@H](Cc2ccccc2)NC(=O)c2ccccc2)nn1	-17[16.7 µM]
COc1ccc(NC(=O)N(C)C[C@@H]2Oc3ccc(NS(=O)(=O)c4ccc(C)cc4)cc3CC(=O)N([C@H](C)CO)C[C@H]2C)cc1	7[16.7 µM]
CO[C@@H]1CN(C)C(=O)c2ccc(NC(=O)NC(C)C)cc2OC[C@@H](C)N(C(=O)C2CCC2)C[C@H]1C	-1[16.7 µM]
CO[C@@H]1CN(C)C(=O)c2ccc(NC(=O)C3CC3)cc2OC[C@@H](C)N(Cc2ccncc2)C[C@H]1C	-1[16.7 µM]
CN(C)C(=O)C[C@H]1CC[C@@H]2[C@H](COC[C@H](O)CN2C(=O)c2ccncc2)O1	-20[16.7 µM]
COc1cccc(S(=O)(=O)Nc2ccc3c(c2)OC[C@@H](C)N(Cc2ccccc2F)C[C@H](C)[C@H](OC)CN(C)C3=O)c1	12[16.7 µM]
CN(C)CC(=O)N[C@H]1C[C@@H]2O[C@H](CO)CC[C@@H]2O[C@@H]1CCc1ccc(C2=CCCCC2)cc1	4[16.7 µM]
CO[C@H]1CN(C)C(=O)c2ccc(NC(=O)Nc3cccc(F)c3)cc2OC[C@H](C)N(C(C)=O)C[C@H]1C	-10[16.7 µM]
COc1ccccc1CCn1cnc(-c2ccccc2)c1CC(C)C	0
C[C@H]1CN([C@@H](C)CO)C(=O)Cc2cc(NS(=O)(=O)c3ccc(F)cc3)ccc2O[C@H]1CN(C)Cc1ccc(Cl)c(Cl)c1	-11[16.7 µM]
CO[C@H]1CN(C)C(=O)c2ccc(NS(=O)(=O)CC(F)(F)F)cc2OC[C@H](C)NC[C@H]1C	2[16.7 µM]
O=C(N[C@H](Cc1ccccc1)C(=O)NCc1ccco1)[C@H]1O[C@@H](n2ccc(=O)[nH]c2=O)[C@H](O)[C@@H]1O	-29

Fetched by structure from above (6):
SMILES	HIV Env fusion
CO[C@@H]1CN(C)C(=O)c2ccc(NC(=O)NC(C)C)cc2OC[C@@H](C)N(C(=O)C2CCC2)C[C@H]1C	-1[16.7 µM]
CN(C)C(=O)C[C@H]1CC[C@@H]2[C@H](COC[C@H](O)CN2C(=O)c2ccncc2)O1	-20[16.7 µM]
COc1ccc(NC(=O)N(C)C[C@@H]2Oc3ccc(NS(=O)(=O)c4ccc(C)cc4)cc3CC(=O)N([C@H](C)CO)C[C@H]2C)cc1	7[16.7 µM]
CO[C@@H]1CN(C)C(=O)c2ccc(NC(=O)C3CC3)cc2OC[C@@H](C)N(Cc2ccncc2)C[C@H]1C	-1[16.7 µM]
COc1ccccc1CCn1cnc(-c2ccccc2)c1CC(C)C	0
COC(=O)c1cn(C[C@H](Cc2ccccc2)NC(=O)c2ccccc2)nn1	-17[16.7 µM]

Next part
SMILES	HIV Env fusion
COc1ccc(NC(=O)Nc2ccc3c(c2)CC(=O)N([C@H](C)CO)C[C@H](C)[C@@H](CN(C)S(=O)(=O)c2ccccc2)O3)cc1	7[16.7 µM]
O=C(CN1CCOCC1)NCC[C@H]1CC[C@H](NS(=O)(=O)c2ccc(F)cc2)[C@@H](CO)O1	2[16.7 µM]
Cc1ccc(S(=O)(=O)Nc2ccc3c(c2)C(=O)N(C)[C@@H]2CC[C@H](CC(=O)NCCc4ccncc4)O[C@@H]2CO3)cc1	-18[16.7 µM]
CCCCNC(=O)C[C@H]1C[C@@]2(C(=O)OC)C(=C[C@H](C(C)(C)C)O[C@@H]2C)N(CCC2=CCCCC2)C1=O	72*
CO[C@@H]1CC[C@@H]2CCOc3c(C#N)cccc3C(=O)N(C)C[C@@H](c3ccccc3)CC(=O)N(C)C[C@@H]1O2	7[16.7 µM]
COc1cccc(S(=O)(=O)Nc2ccc3c(c2)[C@H]2C[C@H](CC(=O)NC4CCCCC4)O[C@H](CO)[C@H]2O3)c1	-5[16.7 µM]
C[C@H](CO)N1C[C@H](C)[C@H](CN(C)Cc2ccccc2)OCCCC[C@H](C)Oc2ccc(NC(=O)c3ccncc3)cc2C1=O	-8[16.7 µM]
C[C@H](NC(=O)C[C@@H]1C[C@H]2c3cc(NS(=O)(=O)c4ccc(F)cc4)ccc3O[C@H]2[C@@H](CO)O1)c1ccccc1	-16[16.7 µM]
Cc1ccc([C@H]2C[C@]34CN(Cc5ccccc5)S(=O)(=O)[C@H]3C[C@H]2O4)cc1	3
CO[C@H]1CC[C@@H]2CCOc3c(C#N)cccc3C(=O)N(C)[C@H](C)C(=O)N(C)C[C@@H]1O2	0[16.7 µM]
CCCNC(=O)N1C[C@@H](O)COC[C@H]2O[C@@H](CC(=O)NCc3ccncn3)CC[C@@H]21	11[16.7 µM]
C[C@H](CO)N1C[C@H](C)[C@H](CN(C)Cc2ccc(-c3ccccc3)cc2)OCc2cn(nn2)CCCC1=O	-8[16.7 µM]

Continued (2 carried over from the part before).
SMILES	HIV Env fusion
CCCNC(=O)N1C[C@@H](O)COC[C@H]2O[C@@H](CC(=O)NCc3ccncn3)CC[C@@H]21	11[16.7 µM]
C[C@H](CO)N1C[C@H](C)[C@H](CN(C)Cc2ccc(-c3ccccc3)cc2)OCc2cn(nn2)CCCC1=O	-8[16.7 µM]
CC(C)[C@H](C)NC(=O)N(C)C[C@H]1OCc2ccccc2-c2ccccc2C(=O)N([C@H](C)CO)C[C@H]1C	2[16.7 µM]
CCCC#Cc1ccc2c(c1)[C@H]1[C@H](CCN1C(=O)C1CC1)[C@H](CO)N2	21[16.7 µM]
COc1ccccc1CNC(=O)C[C@@H]1C[C@H]2c3cc(NC(=O)C4CCOCC4)ccc3O[C@H]2[C@H](CO)O1	-13[16.7 µM]
CN1[C@@H]2Cn3c(ccc(-c4ccccc4)c3=O)[C@H]1[C@@H](C(=O)NCC1CCCCC1)[C@@H]2CO	9[16.7 µM]
COc1ccc2c3c([nH]c2c1)[C@@H](CO)N(CC1CCOCC1)CC31CN(C(=O)c2ccc(F)cc2)C1	5[16.7 µM]
CO[C@@H]1CC[C@H]2CCOc3c(C#N)cccc3C(=O)N(C)C[C@@H](c3ccccc3)CC(=O)N(C)C[C@H]1O2	9[16.7 µM]
CCOC(=O)C1=C(C(=O)OCC)C2N(Cc3ccc(Br)cc3)c3ccccc3[C@@]23C[C@@H](C(=O)OC)N(S(=O)(=O)c2ccc(C(F)(F)F)cc2)C3=N1 (stereo partly drawn)	-6
C[C@H](CO)N1C[C@H](C)[C@H](CN(C)C(=O)Nc2ccc(F)cc2)Oc2ccc(NC(=O)Cc3cn(C)c4ccccc34)cc2CC1=O	-81[16.7 µM]
C[C@@H]1CN([C@H](C)CO)C(=O)CCCn2cc(nn2)CO[C@H]1CN(C)C	1[16.7 µM]
O=S1(=O)N[C@@H](Cc2ccccc2)COc2cccc(N3CCCCC3)c21	24
CCCCS(=O)(=O)N1CCN(C(=O)C(=O)c2cccc(C(F)(F)F)c2)CC1	91*
C[C@H](NC(=O)C[C@@H]1C[C@@H]2c3cc(NC(=O)C4CCOCC4)ccc3O[C@@H]2[C@@H](CO)O1)c1ccccc1	-8[16.7 µM]
NS(=O)(=O)c1ccc(OCCCN2CCC(C(O)(c3ccccc3)c3ccccc3)CC2)cc1	12
C[C@@H]1CN([C@H](C)CO)C(=O)c2ccccc2-c2ccccc2CO[C@@H]1CN(C)S(=O)(=O)c1cccc(F)c1	12[16.7 µM]
C[C@H](O)[C@@H]1CN2CCc3ccc(-c4ccc5c(c4)OCO5)cc3[C@@H]2C[C@@H]1N(C)C(=O)c1ccco1	-21
O=C(C[C@H]1C=C[C@H](NC(=O)C2CC2)[C@H](CO)O1)NC1CCC1	-17[16.7 µM]
CCCCOCC1CN(CCCC)S(=O)(=O)c2c(Oc3ccc(C(C)C)cc3)cccc2O1 (stereo not drawn)	4
CC(C)NC(=O)Nc1ccc2c(c1)C(=O)N([C@H](C)CO)C[C@H](C)[C@H](CN(C)C(=O)CCCN(C)C)OCCCC[C@@H](C)O2	12[16.7 µM]
